Screening data: PubChem, several laboratories
RecA intein inh: Mtb RecA intein splicing inhibitors, primary screen, biochemical, fluorescence, HTS; cell-free RecA intein splicing; inhibition, %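 (about 9 µM by stock and volumes)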; actives 0.75% (n = 290,000); AID 2221, 2009; in the data active = inhibition above about 30%;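 also: 0% = vehicle wells and 100% = reference inhibitor control wells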
Target sequence (P9WHJ3 whole entry, looked up): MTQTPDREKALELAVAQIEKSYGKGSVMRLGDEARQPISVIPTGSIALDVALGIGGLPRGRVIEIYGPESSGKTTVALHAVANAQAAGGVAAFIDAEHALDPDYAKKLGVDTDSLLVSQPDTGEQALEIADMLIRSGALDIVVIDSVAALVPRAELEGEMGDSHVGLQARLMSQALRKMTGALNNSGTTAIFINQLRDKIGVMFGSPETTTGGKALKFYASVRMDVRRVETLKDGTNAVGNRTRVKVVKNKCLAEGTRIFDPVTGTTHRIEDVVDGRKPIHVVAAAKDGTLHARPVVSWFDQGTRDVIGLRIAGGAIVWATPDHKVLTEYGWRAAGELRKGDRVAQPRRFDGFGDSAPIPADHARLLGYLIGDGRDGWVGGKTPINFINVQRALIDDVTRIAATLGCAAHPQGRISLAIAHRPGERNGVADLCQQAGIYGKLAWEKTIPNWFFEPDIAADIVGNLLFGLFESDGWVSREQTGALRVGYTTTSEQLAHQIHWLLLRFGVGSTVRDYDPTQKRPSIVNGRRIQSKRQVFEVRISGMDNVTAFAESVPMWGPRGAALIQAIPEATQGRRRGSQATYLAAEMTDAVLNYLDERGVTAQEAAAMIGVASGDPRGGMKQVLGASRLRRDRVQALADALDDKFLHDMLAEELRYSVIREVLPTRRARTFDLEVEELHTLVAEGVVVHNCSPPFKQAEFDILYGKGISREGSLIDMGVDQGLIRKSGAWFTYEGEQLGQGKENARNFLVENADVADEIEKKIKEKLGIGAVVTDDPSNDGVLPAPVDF
Mtb H37Rv: M. tuberculosis H37Rv growth inhibitors, H37Rv strain (AID 1626). M. tuberculosis H37Rv growth inhibition; higher % means a stronger effect. actives 0.95% (n = 220,000). inhibition, % at 10 µM; hits with a dose series show IC50 in µM;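 active = confirmed in a dose series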;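 also: bacteria incubated seven days before Alamar blue readout; 0% = bacteria only wells and 100% = bacteria with antibiotic wells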
Mtb betalactam: beta-lactam sensitization of Mtb H37Rv, H37Rv; M. tuberculosis H37Rv growth with meropenem, percent inhibition; hits of this screen are not shown here; inhibition, % at 25 µM; actives 0.27% (n = 330,000);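 active = about 74% or more and at least 40 points above the plate without the antibiotic, then above 30% in a dose series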;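 also: growth measured after seven days incubation then overnight dye step; 0% = bacteria only wells and 100% = bacteria with antibiotic; twin plates without the antibiotic show which effects depend on it; some results filed as inactive read as strong as hits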
YopH inh: YopH tyrosine phosphatase inhibitors, primary screen, biochemical, fluorescence Ex485/Em525; actives 0.16% (n = 140,000); inhibition, %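 (about 10 µM by stock and volumes)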; YopH tyrosine phosphatase [Yersinia enterocolitica];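 active = inhibition of 50% or more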;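 also: controls were vehicle for no effect and minimum signal wells for full effect; inactives centre near -20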
Arbovirus inh: antivirals against arbovirus infection, primary screen, cell-based, full library, 10K replicate subset. arbovirus infection cell-based antiviral screen. inhibition, % at 10 µM. actives 0.37% (n = 200,000);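 active = inhibition from about 30%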;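 also: bluetongue infection of BSR cells; cell survival read as ATP light after 72 h; 0% = infected wells without compound and 100% = uninfected wells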
Arbovirus inh repeat: further read-out of Arbovirus inh, marked with its call; inhibition, %; measured here: 10K subset replicate screen; many hits read low in the repeat;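 first of two repeat runs on a subset; 0% = infected and 100% = uninfected wells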
Active calls of the source: *; / = no result given.

SMILES | RecA intein inh | Mtb H37Rv | Mtb betalactam | YopH inh | Arbovirus inh | others
COc1cccc(CNC(=O)Cn2c(=O)n(CCC(=O)N3CCCCC3)c(=O)c3sccc32)c1 | -1.9 | / | 3 | / | /
COc1ccc(-c2c(NC(=O)c3ccco3)oc3c(C)cccc3c2=O)cc1 | 0.3 | / | 1 | / | /
Cc1c(Cl)ccc2c(C(=O)NCCN3CCCCC3)cc(-c3ccccn3)nc12 | -1.3 | 70% | 91 | / | -28
CC(=O)c1ccc(N2CCN(S(=O)(=O)c3ccccc3)CC2)c(F)c1 | 3.0 | -10% | 4 | / | 11
O=S(=O)(c1ccc(Cl)cc1)N1CCN(c2nc(-c3cccs3)nc3ccccc23)CC1 | 7.0 | 10% | / | -30 | 11
CN(C)C=NC(=O)c1ccc(N2CCN(c3ncc(C(F)(F)F)cc3Cl)CC2)cc1 | 1.3 | -1% | 40 | -19 | -5
Cc1ccc(NC(=O)c2nn(C34CC5CC(CC(C5)C3)C4)cc2[N+](=O)[O-])cc1 | 4.5 | 12% | 5 | -11 | 4
COc1ccccc1N1CC(C(=O)Nc2ccc(S(=O)(=O)N3CCOCC3)cc2)CC1=O (stereo unspecified) | 1.5 | 5% | -7 | 0 | 5
CCOc1ccc(C2/C(=C(\O)c3ccc4c(c3)OCCO4)C(=O)C(=O)N2Cc2cccnc2)cc1OCC (stereo unspecified) | 0.5 | / | -3 | / | /
O=C(Cc1ccc([N+](=O)[O-])cc1)Nc1ccc2c(c1)CCC2 | -0.3 | / | -11 | / | /
Cc1ccnc(NC(=O)CCC(=O)N(Cc2ccco2)C(C(=O)NC(C)C)c2ccc(F)cc2)c1 (stereo unspecified) | 1.1 | / | 6 | / | /
O=C(CCn1c(=O)oc2ccccc21)NCCCN1CCOCC1 | -0.5 | / | -5 | / | /
COc1ccc(N(C(=O)Cn2nnc3ccccc32)C(C(=O)NCc2ccco2)c2ccc(C)o2)cc1 (stereo unspecified) | 1.8 | 3% | 0 | -34 | 19
CCc1noc(C)c1C(=O)Nc1nc(-c2ccc(NC(C)=O)cc2)cs1 | 0.6 | / | 0 | / | /
COc1ccccc1NC(=O)N1CCC(c2nnc(SCC(N)=O)n2C)CC1 | 0.3 | -12% | 1 | -31 | 6
COc1ccc(-n2cnnc2SCc2ncc(-c3ccccc3)o2)cc1 | 2.7 | 10% | 0 | -3 | 17
CCOc1ccc(Cc2nnc(N)s2)cc1OCC | 2.8 | -5% | 2 | 9 | -2
CCCS(=O)(=O)N1CCC(C(=O)NCCCN(CC)c2cccc(C)c2)CC1 | / | 2% | -7 | -32 | 1
Cn1c(C(=O)NCc2cccs2)cc2c(=O)n(C)c3ccccc3c21 | -1.7 | -1% | 4 | -44 | -2 | Arbovirus inh repeat=-4
Cc1onc(-c2ccccc2)c1C(=O)Nc1nc(-c2ccc(F)c(F)c2)cs1 | 0.0 | 24% | 1 | -52 | -14
CCOc1ccc(Nc2nc(N)nc(CN(C)C3CCCCC3)n2)cc1 | 5.9 | -4% | -4 | -11 | 1
COc1ccc(/C=N/NC(=O)c2ccn[nH]2)cc1COc1ccc(Cl)cc1 | 8.4 | -7% | 0 | -35 | -5
N#CCSc1nnc(-c2ccc3c(c2)OCO3)o1 | -0.9 | -1% | -2 | / | -6
O=C(CN1CCN(S(=O)(=O)c2ccccc2)CC1)NCc1ccccc1 | 1.3 | / | 0 | / | /
COc1ccc2nc(Nc3nc(CSc4nc5ccccc5[nH]4)cc(=O)[nH]3)nc(C)c2c1 | 0.4 | 79% | -3 | -20 | -31
Later entries:
SMILES | RecA intein inh | Mtb H37Rv | Mtb betalactam | YopH inh | Arbovirus inh | others
CSc1nc2ccccc2n1CC(=O)Nc1c(C)n(C)n(-c2ccccc2)c1=O | -1.9 | -5% | -2 | -37 | 3
CCOC(=O)/C(C#N)=C/c1c(OCC)n(CC)c2ccccc12 | 3.1 | 13% | 5 | -27 | -5
COc1cc(/C=N/NC(=O)C[n+]2ccccc2)cc(OC)c1OC(C)=O | -3.4 | -3% | -3 | / | /
Cc1ccc(NC(=S)N(Cc2ccc(Cl)cc2)Cc2ccc(C(=O)O)cc2)cc1Cl | 11 | 5% | 3 | / | -3
CCOC(=O)/C(C#N)=C/c1cn(CCC(=O)O)nc1-c1ccc(F)cc1 | -1.6 | -2% | -5 | / | 6
CCOC(=O)C1CCN(C(=O)CCc2nnc3ccc(NCCCN4CCCC4=O)nn23)CC1 | -1.1 | / | -6 | / | /
CNC(=O)NC(=O)C(C)OC(=O)CCCSc1nc2ccccc2s1 (stereo unspecified) | -3.1 | -1% | 7 | -14 | 6
CCN1C(=O)N(c2cccc3ccccc23)C(C)=CC1(C)C | 0.8 | 5% | 0 | 9 | 5
COc1ccccc1-n1c(SCC(=O)N2CCOCC2)nc(O)c(Cc2ccccc2)c1=O | 0.3 | -4% | -4 | -22 | 5
O=C(O)CSc1nnc(COc2cccc3cccnc23)n1-c1ccc(Cl)cc1 | 0.4 | -28% | -7 | / | 1
CN(C)C(=O)c1c2c(nc3ccccc13)CCCC2 | -0.2 | 4% | -8 | / | -5
COc1ccc(/C=C/C(=O)Nc2ccccc2)cc1S(=O)(=O)N1CCOCC1 | / | 2% | -8 | / | /
O=C(NCCCN1CCN(c2cccc(Cl)c2)CC1)C1CCC(=O)N1Cc1ccccc1Cl (stereo unspecified) | 0.9 | / | / | 4 | -17
COc1ccc(C(=O)NCc2nnc(SC)n2Cc2ccccc2)cc1 | -0.6 | 2% | -9 | / | 2
Nc1c([N+](=O)[O-])cc(-c2cnc[nH]2)cc1[N+](=O)[O-] | / | 6% | 2 | / | 12
COc1ccc(-c2[nH]ncc2CN(Cc2nccn2C)C(C)C)c(F)c1 | -0.8 | -5% | 4 | / | 1
NC(=O)c1cccc2c(=O)oc3ccccc3c12 | -0.9 | -2% | -6 | -1 | -5
Nn1c(SCC(=O)Nc2ccc(Oc3ccccc3)cc2)nnc1C1CC1 | 3.1 | 41% | 80 | -16 | 1
N#CCn1c2ccccc2c2nc3ccccc3nc21 | -5.5 | -5% | -1 | / | 12
Cc1ccc(-c2nnn(CCC(=O)NC(C)(C)C)n2)cc1 | 0.9 | 0% | -5 | -4 | 5
O=C(O)c1ccc(/C=C2\SC(=S)N(NC(=O)c3ccc(Br)cc3)C2=O)cc1 | 1.4 | / | 4 | / | /
O=S(=O)(Nc1ccc(Br)cn1)c1ccc(Cl)s1 | 0.2 | / | -24 | / | /
CCCc1cc(=O)[nH]c(Nc2ccc(O)cc2)n1 | -6.0 | 2% | -2 | -17 | -1
CCOC(=O)C(C(C)=O)c1c(Br)c(O)c(O)c2c(C(=O)c3ccc(C)cc3)coc12 (stereo unspecified) | 11 | -5% | -7 | -8 | -37
COc1cc(CNCCSc2nnnn2C)cc(Br)c1OCc1ccccc1 | 3.1 | 1% | -11 | / | -2
Next results
SMILES | RecA intein inh | Mtb H37Rv | Mtb betalactam | YopH inh | Arbovirus inh | others
Cc1nc2sc3c(c2c2nc(-c4ccco4)nn12)CCCC3 | / | 2% | / | -15 | 2
O=S(=O)(CCSc1ccc(C(F)(F)F)cn1)c1ccc(Cl)cc1 | -0.1 | -7% | 2 | / | /
O=C(NC1CCCC1)C1CCCN(S(=O)(=O)c2ccc(-n3cnnn3)cc2)C1 (stereo unspecified) | -6.0 | -9% | -7 | -24 | 3
Cc1ccc(N=Cc2c(O)n(-c3ccc(C)cc3)c(=O)[nH]c2=O)cc1 | 1.9 | -7% | -8 | / | /
CC(CCn1cccn1)NC(=O)c1cc(COc2ccc(F)cc2F)on1 (stereo unspecified) | 0.7 | 6% | -6 | / | -1
Cc1ccc(Cn2c(C(C)Nc3nc(-c4ccc(F)cc4)cs3)nc3cc(C(=O)NCCCO)ccc32)cc1 (stereo unspecified) | 25 | 2% | 38 | / | /
Cc1ccc(CNC(=O)Cn2ccc3ccccc3c2=O)o1 | -0.8 | -10% | -6 | -43 | -3
CC(C)C(C)NC(=O)CN1C(=O)NC2(CCCc3ccccc32)C1=O (stereo unspecified) | -3.0 | 2% | 0 | / | 11
CC(C)NC(=O)CC1C(=O)NCCN1CC(c1ccccc1)c1ccccc1 (stereo unspecified) | -2.3 | 3% | -5 | / | 5
CC1(C)CC(N2CCCC2)=CC(=[N+]2CCCC2)C1 | -0.8 | -2% | 3 | -22 | -4
CCOc1ncccc1C(=O)OCc1ccc(C(=O)OC)o1 | -1.5 | -6% | 2 | -28 | 3
CCCCn1c(-c2cccc3ccccc23)nc2cc3[nH]c(=O)c(C(C)C)nc3cc21 | 4.6 | / | 98 | / | /
CC(C)CN(C(=O)c1ccc(C(F)(F)F)cc1)c1c(N)n(CC(C)C)c(=O)[nH]c1=O | -1.3 | / | 0 | / | /
CCN1CCN(c2nc(S(=O)(=O)c3ccc(C)cc3)c(Cl)s2)CC1 | 0.0 | -3% | 4 | / | 13
CCC1(CC)NC(=O)N(CC(=O)Nc2ccc(S(=O)(=O)N3CCOCC3)cc2)C1=O | 4.3 | 4% | -5 | / | 1
CCC(OC(=O)c1ccco1)C(=O)NC1CCCC1 (stereo unspecified) | -0.5 | / | -7 | / | /
CCOC(=O)c1ccc(N/N=C/c2cc(Br)cc([N+](=O)[O-])c2O)cc1 | 0.6 | 34% | 3 | / | 30
CCC(C)N(C(=O)Cn1c(=O)cnc2ccccc21)C1CCS(=O)(=O)C1 (stereo unspecified) | -0.4 | / | 6 | / | /
O=C(OCc1ccccc1)/C(=C/c1cccc([N+](=O)[O-])c1)NC(=O)c1ccco1 | 1.6 | / | -6 | / | /
Cc1cc2oc(=O)cc(CN(C)Cc3cccc(F)c3)c2cc1Cl | 13 | / | -3 | / | /
CC(C)(C)C1CCc2c(sc(NC(=O)C3CC=CCC3C(=O)O)c2C#N)C1 (stereo unspecified) | 2.2 | 4% | 3 | -17 | 36*
Cc1ccc(-c2cc(-c3ccccc3)nc(N)c2C#N)o1 | -6.9 | / | -2 | / | /
CC1(C)CC(=O)C2=C(C1)Nc1cc3c(cc1C2c1ccc(F)cc1)OCO3 (stereo unspecified) | -5.1 | 10% | -6 | -10 | 1
NS(=O)(=O)c1ccc(NC(=S)N2CCCC2)cc1 | -1.8 | / | 6 | / | /
Cc1ccc2c(C)c(C(=O)NCCc3ccco3)oc2c1C | 3.0 | / | 8 | / | /

The list goes on (6 carried over from the part before).
SMILES | RecA intein inh | Mtb H37Rv | Mtb betalactam | YopH inh | Arbovirus inh | others
Cc1cc2oc(=O)cc(CN(C)Cc3cccc(F)c3)c2cc1Cl | 13 | / | -3 | / | /
CC(C)(C)C1CCc2c(sc(NC(=O)C3CC=CCC3C(=O)O)c2C#N)C1 (stereo unspecified) | 2.2 | 4% | 3 | -17 | 36*
Cc1ccc(-c2cc(-c3ccccc3)nc(N)c2C#N)o1 | -6.9 | / | -2 | / | /
CC1(C)CC(=O)C2=C(C1)Nc1cc3c(cc1C2c1ccc(F)cc1)OCO3 (stereo unspecified) | -5.1 | 10% | -6 | -10 | 1
NS(=O)(=O)c1ccc(NC(=S)N2CCCC2)cc1 | -1.8 | / | 6 | / | /
Cc1ccc2c(C)c(C(=O)NCCc3ccco3)oc2c1C | 3.0 | / | 8 | / | /
O=C(NC1CCN(C(=S)NCc2ccco2)CC1)C1CCCCC1 | -0.5 | -14% | 4 | -34 | 4
CCN(C(=O)c1ccccc1Cl)c1ccccc1 | 1.4 | 2% | -3 | 12 | 5
O=c1[nH]c(=S)n(Cc2ccco2)c(O)c1C=NCc1cccs1 | 1.0 | 7% | 8 | -19 | 1
O=C(CN(C(=O)Cn1nnc(-c2ccc(F)cc2)n1)c1ccc(F)cc1)NC1CCCC1 | 1.2 | / | -2 | / | /
Cc1ccc(C)c(S(=O)(=O)N2CCCOC2CNC(=O)C(=O)NCc2cccnc2)c1 (stereo unspecified) | 0.1 | 0% | -9 | / | 10
O=C(COC(=O)/C=C/c1ccco1)NCc1ccccc1 | -0.7 | 5% | -4 | / | 6
Cc1ccc(CNC(=O)CCC2CCCN(C(=O)CCC(F)(F)F)C2)o1 (stereo unspecified) | -2.2 | -7% | 5 | / | -1
CN(C)C1=NCCN1CCc1cccc(F)c1 | -0.4 | / | -5 | / | /
CCN(CC)CC(=O)Nc1sc2c(c1C(=O)c1ccccc1C)CCC2 | 12 | -1% | 3 | / | 19
CCN1CCN(Cc2ccc(NC(=O)c3ccc(C)c(NC(=O)c4nccn4C)c3)cc2C(F)(F)F)CC1 | 0.3 | 2% | -10 | / | /
CC(=O)Nc1ccc(SC[C@H](c2ccccc2)N2CCN(CCc3ccccc3)CCC2=O)cc1 | -1.5 | 23% | 66 | / | /

Two compounds picked at random from those above:
SMILES | RecA intein inh | Mtb H37Rv | Mtb betalactam | YopH inh | Arbovirus inh | others
O=C(NCCCN1CCN(c2cccc(Cl)c2)CC1)C1CCC(=O)N1Cc1ccccc1Cl (stereo unspecified) | 0.9 | / | / | 4 | -17
N#CCSc1nnc(-c2ccc3c(c2)OCO3)o1 | -0.9 | -1% | -2 | / | -6

An excerpt. The share of hits here may be higher or lower than overall.
